Assay outcomes from PubChem.
Rce1 inh: yeast Ras-converting enzyme inhibition; Q03530; yeast membranes, quenched prenylated peptide cleavage fluorescence; calls only; hit rate 0.27% among 290,000; AID 2563;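 active means fall in fluorescence gain of 50% or more versus controls, with final raw signal at or below 3038400; inconclusive means same 50% fall but final raw signal above 3038400; inactive means fall in fluorescence gain under 50%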;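 further: plate controls were neutral control wells for no effect and wells lacking membranes for full effect; tested at 10 µM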
Target sequence (Q03530 whole entry, looked up): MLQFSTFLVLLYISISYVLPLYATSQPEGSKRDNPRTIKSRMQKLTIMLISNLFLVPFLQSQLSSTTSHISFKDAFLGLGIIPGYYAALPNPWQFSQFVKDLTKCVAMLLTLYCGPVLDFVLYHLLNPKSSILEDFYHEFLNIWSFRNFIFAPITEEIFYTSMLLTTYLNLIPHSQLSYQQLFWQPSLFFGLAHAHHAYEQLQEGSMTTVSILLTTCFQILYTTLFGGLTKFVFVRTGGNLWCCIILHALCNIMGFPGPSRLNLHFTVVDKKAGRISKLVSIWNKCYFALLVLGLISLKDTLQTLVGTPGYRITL
Env fusion inh: blocks HIV Env-driven cell-cell fusion; inhibition, % at 12.3 µM; HeLa-JRFL Env/CEM21 cell fusion, luciferase; hit rate 1.1% among 360,000;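 active means mean replicate inhibition score of at least 50 and every replicate individually at or above 50; inconclusive means only one of the two criteria met; inactive means mean below 50 and not all replicates reaching 50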;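 further: 0% = plate neutral controls and 100% = maraviroc near 300 nM; one replicate is shown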
UUG fidelity: modulators of start codon recognition fidelity in yeast; S. cerevisiae UUG-firefly luciferase reporter, luminescence/redox ratio; activity score, % at 18.7 µM; hit rate 0.13% among 350,000; AID 602363;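 active means replicate mean at a twofold rise or more, about +100% in these data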;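 further: firefly luciferase made from a UUG start codon reports start codon fidelity; reporter light over untreated wells divided by growth signal over untreated wells; some hits fall short of that in this replicate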
PABP polyA inh: PABP-poly(A) binding inhibition | P11940 | PABP-poly(A) RNA binding, fluorescence polarization | inhibition, % at 35 µM | hit rate 1% among 290,000 | AID 2014;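 active means 50% or more with normal probe brightness, or confirmed in later tests; inconclusive means above 50% with abnormal brightness, or retests that disagree; inactive means below 50% or failed in later tests; about a fifth of its hits are not listed in these tables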;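 further: calls also rest on retests at 20 µM and on dose response follow-up; controls were probe without protein and protein plus probe with vehicle; some compounds called inactive have numbers as strong as hits; many hits fall short of the cut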
Target sequence (P11940 whole entry, looked up): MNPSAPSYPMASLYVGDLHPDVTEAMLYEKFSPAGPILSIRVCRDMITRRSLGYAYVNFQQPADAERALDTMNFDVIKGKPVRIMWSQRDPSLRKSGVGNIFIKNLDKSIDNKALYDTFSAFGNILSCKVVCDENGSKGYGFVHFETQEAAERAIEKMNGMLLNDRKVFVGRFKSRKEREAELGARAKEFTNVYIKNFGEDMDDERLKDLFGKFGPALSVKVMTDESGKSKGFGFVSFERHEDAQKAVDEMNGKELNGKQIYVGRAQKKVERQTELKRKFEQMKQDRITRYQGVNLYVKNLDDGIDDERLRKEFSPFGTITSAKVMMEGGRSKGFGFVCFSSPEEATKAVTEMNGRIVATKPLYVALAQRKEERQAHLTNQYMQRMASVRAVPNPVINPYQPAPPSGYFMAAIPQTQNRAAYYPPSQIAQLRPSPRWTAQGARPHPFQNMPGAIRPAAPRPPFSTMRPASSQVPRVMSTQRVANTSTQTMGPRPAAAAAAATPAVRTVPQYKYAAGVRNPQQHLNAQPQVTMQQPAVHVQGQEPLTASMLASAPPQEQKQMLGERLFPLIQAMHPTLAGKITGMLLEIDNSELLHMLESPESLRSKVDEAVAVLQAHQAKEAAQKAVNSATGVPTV
CSC inhib: cancer stem cell inhibition. hit rate 1.1% among 300,000. inhibition, % at 7.5 µM. cancer stem cell-like cells viability, luminescence;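 active means mean at 75% or more and at least half the replicates too; inconclusive means mean and replicates disagree; tested in HMLE shEcad cells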;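 further: 0% = median of negative and 100% = median of positive control wells; the first replicate is given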
eIF4H inh: inhibitors of RNA binding by human eIF4H; eIF4H fluorescence polarization binding assay; inhibition, % at 35 µM; hit rate 0.94% among 290,000;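 active means 50% or more with normal probe brightness, or confirmed in later tests; inconclusive means above 50% with abnormal brightness, or retests that disagree; inactive means below 50% or failed in later tests; about a fifth of its hits are not listed in these tables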;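 further: calls also rest on retests at 20 µM and on dose response follow-up; 0% = protein and probe with vehicle and 100% = probe without protein; strong numbers were not always called active; many hits fall short of the cut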
MT1-MMP act inh: inhibitors of human MT1-MMP activation; P50281; HT1080 RFP-PRO-GFP cells, GFP/RFP ratio fluorescence, overnight; percent of plate control window, DMSO zero; GFP/RFP ratio change, % at 20 µM; hit rate 0.061% among 360,000;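 active means GFP/RFP ratio change of at least 30% with cell ATP level not reduced by more than half and red fluorescence within 50% of control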; further: strong numbers were not always called active
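Test system: HT1080 RFP-PRO-GFP cells; Benchmarks: DMSO and RFP-L50D-GFP cell wells; Timing: cells overnight before dosing, compound overnight, 37 °C, 5% CO2; Compound: one 20 µM compound dose with 1% DMSO; Read-out: GFP/RFP fluorescence ratio.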
eIF4H inh retest: second read-out of eIF4H inh, no call of its own (marks repeat the call); inhibition, %; compound at 20 µM; confirmation average;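 mean of two retest wells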
PABP polyA inh retest: recorded beside PABP polyA inh, whose call it bears; inhibition, %; compound at 20 µM; confirmation repeats;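 mean of two retest wells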
MT1-MMP act inh RFP: recorded beside MT1-MMP act inh, whose call it bears; RFP signal change, %; measured here: RFP expression control read;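 0 = vehicle wells; hits needed this value within 50% of zero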
* hit, by the source's call; i = inactive; ? = inconclusive; . = no result given. An unsorted share of the library, and some 3% of all compounds hit somewhere here.

SMILES | Rce1 inh | Env fusion inh | UUG fidelity | PABP polyA inh | CSC inhib | eIF4H inh | MT1-MMP act inh | MT1-MMP act inh RFP | others
CC(=O)NNC(=O)CN1C(=O)/C(=C/c2ccccc2)SC1=S | i | -51 | . | 4 | 0 | 3 | 7 | 5
Cc1nc2ccccc2c2ncccc12 | i | -26 | 14 | -1 | -6 | -1 | -4 | 0
O=C(NC1CCCCC1)c1cc([N+](=O)[O-])ccc1N1CCCC1 | i | -21 | -13 | -5 | 13 | -10 | 3 | 3
O=C(CSc1nc2ccccc2nc1N1CCCCC1)N1CCN(c2ccccc2)CC1 | i | . | 1 | -1 | -3 | -8 | -2 | -3
Cc1ccc(S(=O)(=O)N2CCOCC2)cc1C(=O)Nc1ccncc1 | . | 7 | -9 | . | 3 | . | -1 | -6
Cc1ccc(S(=O)(=O)Cn2nnnc2CN(Cc2ccco2)CC2CCCO2)cc1 (stereo unspecified) | . | . | . | 0 | 5 | 12 | -15 | -3
O=C(C1=C[C@@H](c2ccc(C(F)(F)F)cc2)C[C@@H](OCCCCO)O1)N1CCN(Cc2ccccc2)CC1 | i | -6 | -7 | 1 | -7 | 10 | -1 | -7
Cc1n[nH]c(=O)c2c(NC(=O)COC(=O)COc3cccc(Br)c3)oc(C)c12 | i | 6 | -8 | . | 0 | . | 6 | 2
CCOc1cc(/C=C(\C#N)c2nc(-c3cccs3)c(NC(C)=O)s2)ccc1O | i | . | . | -2 | 54 | ? | -80 | 39
O=C1CCc2cc(NS(=O)(=O)c3ccc(Br)cc3)cc3c2N1CC3 | i | 10 | 13 | . | -3 | . | 3 | 2
COc1ccc2c(c1)OC[C@H]1[C@H]2N2C(=O)c3ccccc3NC(=O)[C@@]2(C)[C@H]1c1ccccc1 | . | -53 | 0 | . | . | . | -11 | -9
Cc1ccc(C)c(Nc2ncnc(N)c2[N+](=O)[O-])c1 | i | -28 | . | -2 | . | -1 | 2 | 0
COc1ccc(-c2cc(C(F)(F)F)n3nc(C(=O)NCCCn4ccnc4)cc3n2)cc1 | i | . | -14 | 3 | . | -5 | -3 | -2
CCS(=O)(=O)c1ccc(O)c(NC(=O)CCCC(=O)O)c1 | i | -1 | -19 | 11 | -11 | 12 | -4 | -1
C/C(=C\C(=O)c1ccc(C)o1)Nc1ccc(C(=O)O)cc1C | . | -7 | -16 | 23 | -1 | 2 | 1 | 6
Cc1onc(-c2ccccc2)c1CNS(=O)(=O)c1ccccc1[N+](=O)[O-] | i | 24 | . | -12 | -2 | -10 | 2 | 1
COc1ccc(CSc2nc(C)cc(C)c2S(C)(=O)=O)cc1 | i | 26 | . | ? | -5 | 4 | 5 | -9
CCOC(=O)C1=C(COc2ccc(C)cc2)NC(=O)NC1c1cc(C)ccc1C (stereo unspecified) | i | 3 | . | 5 | -1 | 3 | 0 | 1
CN(C)CCN(C(=O)c1ccc2ccccc2c1)c1nc2c(F)cc(F)cc2s1 | i | 1 | -18 | -1 | 4 | -7 | -2 | 4
O=[N+]([O-])c1cc(S(=O)(=O)Nc2cccc(Cl)c2)ccc1N/N=C/c1ccc(N2CCOCC2)cc1 | i | -6 | -9 | 3 | 36 | 4 | 13 | -7
COC(=O)C(C(C)C)N(Cc1cc(OC)cc(OC)c1)S(=O)(=O)CCl (stereo unspecified) | . | -20 | 9 | . | . | . | 4 | 2
O=C1C(Cc2ccc(F)cc2)SC(=Nc2ccccc2)N1c1ccccc1 (stereo unspecified) | i | 3 | -36 | 12 | 9 | -10 | -5 | -4
CN1C(=O)C2ON(c3ccccc3)C(c3cccs3)C2C1=O (stereo unspecified) | i | 13 | -14 | 10 | -6 | -1 | 1 | 2
CCOC(CCn1ccc(O)c(Cc2ccc(Cl)cc2)c1=O)OCC | i | -4 | -9 | -6 | -16 | -2 | -4 | -1
CCN(CC)S(=O)(=O)c1ccc(OCC2CCCCO2)c([N+](=O)[O-])c1 (stereo unspecified) | i | 12 | 23 | 0 | -12 | -7 | 4 | -7
COc1ccc(-c2nc(CS(=O)(=O)CC(=O)NCc3cccc(OC)c3OC)c(C)o2)cc1 | i | 6 | -5 | -13 | -15 | -5 | 3 | 4
Cc1ccc(S(=O)(=O)N(C)c2ccccc2C(=O)Nc2c(F)cccc2F)cc1 | i | -47 | -13 | -3 | -2 | 1 | 1 | -3
O=C(NCC(c1ccco1)N1CCCC1)c1cc2cc(Cl)ccc2o1 (stereo unspecified) | . | -8 | -7 | . | -1 | . | 0 | -2
NC(=NC1CCCCC1)c1ccc([N+](=O)[O-])cc1 | i | -11 | 9 | 3 | -7 | -7 | 0 | 0
S=C(NCCCN1CCN(CCCNC(=S)NC2CCCCC2)CC1)NC1CCCCC1 | . | -10 | -33 | . | . | . | 2 | -1
C/C(CC(=O)Nc1ccc2c(c1)OCCO2)=N\NC(=O)c1ccccn1 | i | 1 | . | -5 | -8 | -9 | 0 | 5
NCCc1ccc(O)c(O)c1 | i | 19 | -21 | 5 | 0 | 100 | 2 | 2 | eIF4H inh retest=-2;PABP polyA inh retest=-9
Cc1cccc(N2CCN(Cc3cc(=O)n4ccsc4n3)CC2)c1C | i | . | -18 | 0 | 4 | -3 | -7 | -6
COc1ccc(NC(=O)C2Cc3c(-c4cccc(C(N)=O)c4)ccnc3O2)cc1 (stereo unspecified) | . | -7 | 1 | . | . | . | -2 | -7
Cc1ccc(-n2nc3c(=O)n(C(C)C(=O)NCc4ccccc4Cl)nc(C)c3c2C)cc1 (stereo unspecified) | i | 1 | 11 | . | 0 | . | 1 | -26
O=C(Nc1ccccc1C(=O)N/N=C/c1ccco1)c1ccc(Cl)cc1 | i | 2 | . | 6 | 6 | 7 | 1 | 6

In the list so far, these have bromine.
SMILES | Rce1 inh | Env fusion inh | UUG fidelity | PABP polyA inh | CSC inhib | eIF4H inh | MT1-MMP act inh | MT1-MMP act inh RFP | others
Cc1n[nH]c(=O)c2c(NC(=O)COC(=O)COc3cccc(Br)c3)oc(C)c12 | i | 6 | -8 | . | 0 | . | 6 | 2
O=C1CCc2cc(NS(=O)(=O)c3ccc(Br)cc3)cc3c2N1CC3 | i | 10 | 13 | . | -3 | . | 3 | 2

The results go on.
SMILES | Rce1 inh | Env fusion inh | UUG fidelity | PABP polyA inh | CSC inhib | eIF4H inh | MT1-MMP act inh | MT1-MMP act inh RFP | others
CC(C)CN1C(=O)c2ccccc2C1(O)Cc1ccccc1 (stereo unspecified) | i | 8 | -12 | 33 | -5 | 10 | -5 | -2
Cc1c(Cl)cccc1NC(=S)N1CCN(C(=O)C2CCCO2)CC1 (stereo unspecified) | i | 13 | -23 | -6 | -5 | -3 | 0 | 1
O=C(NC1CCCC1)C(c1ccncc1)N(C(=O)c1csnn1)c1ccc(Cl)cc1 (stereo unspecified) | i | 41 | -5 | -5 | 4 | -12 | 1 | 4
CCCS(=O)(=O)NCCc1cc2cc(C)c(C)cc2[nH]c1=O | i | . | -5 | -11 | 14 | -4 | -3 | 0
CCOC(=O)N1CCN(C(=O)c2ccc3[nH]c(C)c(C)c3c2)CC1 | . | -17 | -14 | . | -1 | . | 1 | 1
O=C(Nc1ccnn1C1CCN(Cc2cc3ccccc3[nH]2)CC1)C1CCOC1 (stereo unspecified) | i | 33 | 2 | 6 | -11 | -3 | -1 | 2
CCC(=O)Nc1ccc(C(=O)CSc2nnc(-c3ccc(O)cc3)n2CC2CCCO2)cc1OC (stereo unspecified) | i | 20 | 3 | -9 | -1 | -2 | 2 | 2
Cc1cc[n+](CC(=O)c2ccc(NC(=O)c3ccccc3)cc2)c2ccccc12 | i | 5 | . | 4 | 15 | 9 | 29 | 2
CC1CCc2nc(NC(=O)CSc3nc4ccccc4o3)sc2C1 (stereo unspecified) | i | . | -21 | 3 | -8 | 2 | 0 | -25
COc1ccc(CCNC(=O)c2cc(S(=O)(=O)N3CCCCCC3)ccc2OC)cc1OC | . | 1 | 10 | . | . | . | -1 | -2
COc1cccc(/C=N/NC(=O)c2oc3nc(-c4ccccc4)cc(-c4ccco4)c3c2N)c1 | i | 22 | 4 | ? | -10 | ? | -7 | 1
CNc1c([N+](=O)[O-])cnn1-c1ccc(C)cc1 | i | i | -8 | -10 | 2 | -6 | 0 | -3
CC1=NN(Cc2ccccc2)C(=O)/C1=C\c1ccc(N(C)C)cc1 | i | . | . | -19 | -5 | -26 | 6 | 1
O=C1CCCc2ccccc2N1Cc1c(Cl)cccc1Cl | i | . | . | 1 | 2 | -9 | -6 | -4
CCOc1cccc(NC(=O)CSc2nc(C)c3c(c2C#N)CCCC3)c1 | i | -51 | -17 | 1 | -1 | 2 | -3 | 3
COC(=O)c1ccc(NC(=O)CSc2nc3[nH]ncc3c(=O)[nH]2)cc1 | i | -42 | . | . | -1 | . | 1 | 2
CCOC(=O)C1CCCN(C2CC(=O)N(c3cccc(C)c3)C2=O)C1 (stereo unspecified) | i | -43 | -27 | 29 | . | -13 | 1 | 1
Nc1ccc2nc(SCc3cccc(F)c3)sc2c1 | i | -64 | -10 | -19 | -7 | 6 | 1 | 5
O=C1C=C(c2ccccc2)C[C@H](c2cccs2)[C@H]1n1nnc([N+](=O)[O-])n1 | i | . | . | 5 | . | 6 | -7 | -15
CCOc1ccccc1Nc1nnc(Cc2ccccc2Cl)c(=O)[nH]1 | i | -44 | -24 | 15 | -9 | 13 | 4 | 1
Cc1cccc(NC(=O)CCN2CCC(C(N)=O)CC2)c1 | i | 2 | -28 | -1 | -13 | -1 | 2 | 2
Cc1ccc(NC(=O)COC(=O)CCc2ccccc2)cc1S(=O)(=O)N1CCOCC1 | . | . | -20 | . | -9 | . | 6 | 3
COc1ccc(C2=NOC(CNC(=O)c3ccccc3Br)C2)c(OC)c1 (stereo unspecified) | i | 0 | -15 | -3 | -1 | -1 | 3 | 1
O=[N+]([O-])c1ccc(OCc2cccc(COc3ccc([N+](=O)[O-])cc3)n2)cc1 | i | 6 | -9 | -5 | -16 | 2 | 1 | -7
O=C1NC(=Nc2ccccc2Cl)S/C1=C\c1cc([N+](=O)[O-])ccc1O | i | 9 | -6 | 13* | 32 | 66 | -128 | -8 | eIF4H inh retest=47;PABP polyA inh retest=127*
Cc1cnc(C(=O)OCC(=O)N2CCN(S(=O)(=O)c3ccc(Cl)cc3)CC2)cn1 | i | 0 | . | . | -8 | . | 3 | 4
O=C(NC(=S)Nc1ccc(N2CCOCC2)c(Cl)c1)C(c1ccccc1)c1ccccc1 | i | . | -6 | -9 | 14 | 2 | -23 | -19
O=C(Nc1nnc(C2CC2)s1)c1ccncc1 | i | . | 28 | 5 | -7 | 4 | -1 | 4
CCCC1S/C(=N/N=C/c2ccc(OC)cc2)N(Cc2ccc(OC)cc2)C1=O (stereo unspecified) | i | 18 | -3 | -2 | 4 | -1 | 2 | -5
Cc1noc(C)c1CSc1nnc2sc3ccccc3n12 | i | . | -4 | -3 | 5 | -3 | 1 | -1
Cc1nn2cc(-c3ccc(-c4ccccc4)cc3)nc2s1 | i | . | -33 | -5 | -6 | -5 | -17 | -5
S=C(NCc1ccccc1)Nc1ccc(Cl)cc1 | i | -10 | . | 3 | -19 | 12 | 1 | -3
CCn1c(NC(=O)c2ccccc2F)c(-c2cccs2)c(=O)c2ccccc21 | i | 9 | . | 0 | -10 | -4 | -6 | 0
